miR-21 reporter = miR-21 reporter, rising signal | HeLa miR-21 FLuc reporter, luciferase, 48 h | Potency, µM (highest dose often 38.3 µM), for the others: top-dose reporter change, positive = more light | 340,000 tested, under 10 active; active = well fitted rising curve with a large enough effect; inconclusive = small, poorly fitted or top-dose-only effect; inactive = no such curve, though single readings can be large or run the other way;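 further: % of control where 0% means no effect; miR-21 action dims this reporter so a rising signal means less miR-21 action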
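HeLa cells endogenously expressing miR-21, stably carrying CMV-driven firefly luciferase with a downstream miR-21 binding site, 2000 cells/well. Titrations up to approximately 40 uM, 48 hours; luciferase luminescence read.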
* = called active by the depositor; ? = inconclusive. This is a subset. The share of hits here may be higher or lower than overall.

| miR-21 reporter | molecule |
| --- | --- |
| -11% | COC(=O)c1ccccc1NC(=O)CCc1c(C)nc2c(c(C)nn2-c2ccccc2)c1C |
| 23% | CCOC(=O)Cn1c(C2CC(=O)N(c3ccc(C)cc3)C2)nc2ccccc21 (stereo not drawn) |
| -21% | CN(c1ncnc2onc(-c3cccc(Cl)c3)c12)C1CCCCC1 |
| -2% | COc1cn(CC(=O)Nc2cccc(C)c2)c(CN2CCCCC2)cc1=O |
| -21% | COc1ccc(-c2cn3nc(N4CCC(C(=O)Nc5cccc(Cl)c5)CC4)sc3n2)cc1 |
| 11% | CCC(=O)N1CCc2cc(Br)cc(S(=O)(=O)CCC(=O)NCc3ccccc3OC)c21 |
| -25% | COc1ccc(Cl)cc1NC(=O)CCC(=O)N1CCOc2ccccc21 |
| -4% | COc1cccc(OCC(=O)NC2CC(=O)N(c3ccc4c(c3)OCCO4)C2)c1 (stereo not drawn) |
| -1% | COc1ccc(NC(=O)C2CCN(S(=O)(=O)c3c(C)noc3/C=C/c3cccs3)CC2)cc1 |
| ? | CCOC(=O)CN1C(C(=O)c2ccccc2)=C(OC(=O)c2ccccc2)c2ccccc2S1(=O)=O |
| -7% | Cc1c(NC(=O)c2cc3ccccc3o2)cccc1-c1nc2ccccc2o1 |
| 2% | Cc1ccc(C)c(N2CCN(c3nc4ccccc4c4nc(CCn5nc(C)cc5C)nn34)CC2)c1 |
| -5% | CCc1ccc(NC(=O)c2sc3nc(C)c(C(=O)Nc4ccc(C)cc4C)c(-c4ccco4)c3c2N)cc1 |
| 11% | Cc1c(CNC(C)CCc2ccccc2)c(C(=O)O)c(C)n1Cc1ccc(F)cc1Cl (stereo not drawn) |
| 0% | O=C(Nc1ccc2nc(SCC(=O)N3CCCC3)sc2c1)c1ccccc1 |
| 25% | Cc1ccc(NC(=O)c2c(N3CCCC3=O)c3cc(C)ccc3n2C)c(C)c1 |
| 1% | COc1ccc(C)cc1NC(=O)C1CCN(S(=O)(=O)c2cc(Br)cc3c2N(C(C)=O)CC3)CC1 |
| -9% | Cn1c(SCC(=O)c2ccc(F)cc2)nnc1-c1ccccc1Br |
| 29% | CCCC1=Nc2cc(C(=O)NCCc3ccc(OCC)cc3)ccc2Sc2ccccc21 |
| 21% | CCOc1ccc(CC(=O)Nc2ccc3nc(N4CCCCC4)cc(C)c3c2)cc1OCC |
| 5% | CC1CCCN(S(=O)(=O)c2cc(C(=O)NCc3ccccc3Cl)n(C)c2)C1 (stereo not drawn) |
| -11% | COc1cc(C2CC(=O)Nc3c2c(=O)n(C)c2ncnn32)cc(OC)c1OC (stereo not drawn) |
| 3% | CCn1c(C(=O)NCCc2ccc(S(N)(=O)=O)cc2)cc2sc(Cl)cc21 |
| -3% | CN(Cc1ccccc1)S(=O)(=O)c1ccc(F)c(C(=O)Nc2cc(Cl)cc(Cl)c2)c1 |
| -33% | O=C(NCCc1ccccc1)C1COc2ccccc2C1 (stereo not drawn) |
| -3% | COc1ccc(NC(=O)C(=O)NCCc2csc3nc(-c4ccccc4C)nn23)cc1 |
| 0% | COc1cc(OC)c(NC(=O)NCCn2nnc3cc(S(=O)(=O)N(C)C)ccc32)cc1Cl |
| 1% | Cc1c(C(=O)NCCN(C)C)oc2c1-c1nn(Cc3cccc(Cl)c3)cc1CC2 |
| -1% | COc1ccc(Nc2nc3c(S(=O)(=O)c4ccccc4)nnn3c3ccsc23)cc1OC |
| -7% | COc1ccc(OC)c(NC(=O)COCc2cc(-c3ccc(F)cc3)on2)c1 |
| -2% | Cc1nc2ccccc2n1CCc1nc2c3ccccc3nc(SCc3ccc(C#N)cc3)n2n1 |
| -2% | Cc1cccc(OCC(=O)Nc2ccc(OCc3cc(=O)n4cc(C)ccc4n3)cc2)c1 |
| 13% | CC(C)c1ccc(C2=CC(c3cccc(Cl)c3)n3c(nc4ccccc43)N2)cc1 (stereo not drawn) |
| 26% | CC(C)(C)OC(=O)N1CCC(c2c(C(=O)NCc3ccc(F)cc3)cnn2-c2ccc(F)cc2)CC1 |
| 11% | Cc1ccc(/C=C(\C#N)C(=O)Nc2cc(C)ccc2C)cc1 |
| -5% | Cc1ccc2occ(-c3cc(-c4ccc(Cl)cc4)nc4c3COc3ccccc3-4)c(=O)c2c1 |
| -24% | Cc1ccc(CNC(=O)c2ccc3c(c2)nc2n3CCOC2)cc1 |
| 3% | Cc1ccc(C)c(NC(=O)CN2C(=O)CCc3cc(S(=O)(=O)N4CCCCC4)ccc32)c1 |
| -2% | COc1ccc(OC(=O)c2nc(SCc3ccccc3F)ncc2Cl)cc1 |
| -11% | Cc1ccc(CCNC(=O)c2ccc3c(=O)n(-c4ccc(C)cc4)c(=O)[nH]c3c2)cc1 |
| 15% | Cc1ccccc1OCC(=O)NCC(c1ccc(Cl)cc1)N1CCCCC1 (stereo not drawn) |
| -1% | CCc1cccc(C)c1NC(=O)Cn1ncc2c3ccccc3n(Cc3ccccc3)c2c1=O |
| -38% | Cc1nc(CC(=O)Nc2ccc(N(C)C)cc2)cs1 |
| 16% | CC(C)c1ccc(NC(=O)CSC2=Nc3ccccc3C3=NC(CC(=O)NCCc4ccccc4)C(=O)N23)cc1 (stereo not drawn) |
| -46% | O=C(Nc1nnc(N2CCCCCC2)s1)Nc1ccccc1C(F)(F)F |
| 28% | CCS(=O)(=O)N1CCc2cc(C(=O)NCc3ccccc3Cl)ccc21 |
| 0% | COc1cc(-c2ccno2)ccc1S(=O)(=O)N1CCN(c2ccccc2)CC1 |
| 10% | O=C(Nc1cc(Cl)cc(Cl)c1)c1cc(S(=O)(=O)N2CCC3(CC2)OCCO3)ccc1F |
| -5% | O=C(c1ccccc1)c1ccc2nc(N3CCN(c4ccccc4)CC3)c3nncn3c2c1 |
| 24% | COc1ccc(-c2nc3sc(CCNS(=O)(=O)c4ccc(F)c(C)c4)c(C)n3n2)cc1 |
| 3% | Cc1sc(C2C(C#N)=C(N)N(c3ccc(Cl)cc3)C3=C2C(=O)CCC3)cc1CN1CCOCC1 (stereo not drawn) |
| 7% | N#Cc1ccc(NC2=NS(=O)(=O)c3ccccc32)cc1 |
| -2% | CCOc1ccc(NS(=O)(=O)c2ccc(NC(=O)N3CCCC3)cc2)cc1 |
| -5% | CCN1CCN(C(c2ccccc2Cl)c2c(O)cc(C)n(CCOC)c2=O)CC1 (stereo not drawn) |
| 3% | CCc1ccc(-n2nc(C)c3c(C)cc(=O)n(CC(=O)Nc4ccc(C(C)=O)cc4)c32)cc1 |
| 1% | Cc1ccc(NC(=O)CN(Cc2ccccc2)S(=O)(=O)c2ccc3nc(C)sc3c2)c(C)c1 |
| 0% | O=S(=O)(c1ccc2nc(N3CCN(c4cccc(Cl)c4)CC3)ccc2c1)N1CCCCC1 |
| 0% | COc1ccc2c(CNCc3ccc(Cl)cc3)c(C(=O)O)n(Cc3ccccc3C)c2c1 |
| -1% | CCc1cccc(NC(=O)Cn2c(=O)n(-c3ccccc3C)c(=O)c3c2c2cc(C)ccc2n3C)c1 |
| -62% | Cc1ccccc1C(=O)OCc1cc(=O)n2nc(C(C)C)sc2n1 |

The list continues:
| miR-21 reporter | molecule |
| --- | --- |
| 8% | COc1cc(C(=O)Nc2ccc3nc(SCc4ccc(C)cc4)sc3c2)cc(OC)c1OC |
| -2% | O=C1C(c2ccc(F)cc2)N(CCc2ccc(Cl)cc2)C(=O)CN1C1CCCCCC1 (stereo not drawn) |
| -2% | CSc1cccc(N2C(=O)N(Cc3ccc([N+](=O)[O-])cc3)c3ccccc3S2(=O)=O)c1 |
| 1% | CCOC(=O)c1ccc2c(c1)N(Cc1cccc([N+](=O)[O-])c1)C(=O)c1ccccc1S2 |
| -4% | CN(C(=O)CSc1nc(C2CCCC2)nc2c1c(=O)n(C)c(=O)n2C)c1ccccc1 |
| -7% | CCOC(=O)c1c(S(=O)(=O)N2CCC(C(=O)Nc3ccccc3OC)CC2)c(C)n(CC)c1C |
| -1% | CC(C)CCNC(=O)CSc1nc2ccsc2c(=O)n1Cc1ccccc1Cl |
| 20% | CC(=O)N1CCc2c(sc3c2c(=O)n(CCc2ccccc2)c(=O)n3Cc2ccccc2C)C1 |
| -27% | CCCOc1ccc(C2CC(=O)Nc3c2c(C)nn3-c2nncc(-c3cccc(OC)c3)n2)cc1OC (stereo not drawn) |
| 15% | Cn1nc(-c2ccccc2F)c2cc(C(=O)N3CCN(c4ccc(F)cc4)CC3)sc21 |
| 1% | Cc1ccc(-c2cc(C(=O)N3CCN(S(=O)(=O)c4ccc(Br)s4)CC3)[nH]n2)cc1C |
| -8% | Cc1ccc(NC(=O)CN2C(=O)CCc3cc(S(=O)(=O)N4CCOCC4)ccc32)c(C)c1 |
| 3% | COc1ccc(CCNC(=O)C2=C(C)C(=O)OC23CCCCC3)c(OC)c1 |
| 7% | CCOc1ccc(S(=O)(=O)N2CCN(c3c(C)cccc3C)CC2)c2ccccc12 |
| 28% | O=C(NCCc1csc(-c2cccnc2)n1)c1cccc(C(F)(F)F)c1 |
| 0% | CC1=C(C(N)=O)C(c2ccccc2Br)n2ncnc2N1 (stereo not drawn) |
| -1% | CCCN1C(=O)c2ccccc2CC1(C)C(=O)NC1CCCCC1 (stereo not drawn) |
| -3% | O=C(NC1CCN(Cc2ccccc2)CC1)c1ccc(Cn2c(=O)c3ccccc3n(Cc3ccccc3)c2=O)cc1 |
| 16% | CCOc1ccc(-c2nn(-c3ccccc3)cc2C2NC(=O)NC(C)=C2C(=O)OC(C)C)cc1C (stereo not drawn) |
| -39% | Cc1cccc(-c2cc(NC(=O)c3ccccc3C)n(-c3ccccc3)n2)c1 |
| -3% | Cc1ccc(CCNC(=O)c2c(C)oc3ncnc(N4CCOCC4)c23)cc1 |
| -3% | CN(Cc1ccccc1)S(=O)(=O)c1ccc(F)c(C(=O)Nc2cccc(Cl)c2Cl)c1 |
| 17% | Cc1nc(-c2ccc(F)cc2)sc1CCNC(=O)c1ccccc1C(F)(F)F |
| 2% | O=C(c1ccc2c(c1)OCO2)c1cn(Cc2ccc(F)cc2)c2ccccc2c1=O |
| -6% | Cc1cc(NC(=O)c2ccc(Br)o2)cc(-c2nc3ccccc3o2)c1O |
| 14% | Cc1cc(C)n2c(Nc3cccc(C(F)(F)F)c3)c(-c3ccsc3)nc2n1 |
| -2% | CN(C(=O)c1nc(-c2cccc(F)c2)n2c1CCCCC2)c1ccccc1F |
| 12% | Cc1ccc(Nc2ncc(C(=O)Nc3ccc(F)cc3F)c3ccccc23)cc1Cl |
| 0% | CCc1ccc(NC(=O)C(Cc2ccccc2)NS(=O)(=O)c2ccc3c(c2)CCN3C(C)=O)cc1 (stereo not drawn) |
| 11% | CCOc1ccc(NC(=O)CSc2nc(-c3ccccc3)c3cc(OCC)ccc3n2)cc1 |

Three compounds out of the list above, sorted by the number in miR-21 reporter, descending:
mol	miR-21 reporter
CCOc1ccc(NC(=O)CSc2nc(-c3ccccc3)c3cc(OCC)ccc3n2)cc1	11%
COc1ccc(CCNC(=O)C2=C(C)C(=O)OC23CCCCC3)c(OC)c1	3%
CN(Cc1ccccc1)S(=O)(=O)c1ccc(F)c(C(=O)Nc2cccc(Cl)c2Cl)c1	-3%

Returning to the listing; the 2 compounds before the break are reprinted first.
| miR-21 reporter | molecule |
| --- | --- |
| 0% | CCc1ccc(NC(=O)C(Cc2ccccc2)NS(=O)(=O)c2ccc3c(c2)CCN3C(C)=O)cc1 (stereo not drawn) |
| 11% | CCOc1ccc(NC(=O)CSc2nc(-c3ccccc3)c3cc(OCC)ccc3n2)cc1 |
| 12% | COc1cc(C2C(=O)N(C3CCCCC3)CC(=O)N2Cc2ccc(C)cc2)ccc1OC(C)C (stereo not drawn) |
| -3% | COC(=O)c1ccc(CNC(=O)c2nc(Cn3nc(C)c(Br)c3C)no2)cc1 |
| -14% | O=S(=O)(c1ccc(Cl)cc1)c1nnn2c1nc(NC1CCCC1)c1sccc12 |
| 0% | COc1cccc(CNC(=O)Cn2nc(-c3ccc(C)cc3)ccc2=O)c1 |
| 1% | Cc1cccc(Cn2c(=O)n(CCC(=O)NCCc3ccc(Cl)cc3)c(=O)c3sccc32)c1 |
| 2% | COc1cc(OC)c(NC(=O)c2c3c(nn2C)-c2ccccc2SC3)cc1Cl |
| -1% | COc1ccc(NC(=O)CCc2nnc3n(CC(C)C)c(=O)c4ccccc4n23)cc1OC |
| -7% | CCc1ccccc1Nc1nn2c(=O)c3ccc(C(=O)Nc4cc(C)cc(C)c4)cc3nc2s1 |
| -6% | CCOc1ccc(S(=O)(=O)NCc2nc3cccnc3n2Cc2ccccc2OC)cc1 |
| -3% | Cn1c(=O)n(CCCc2ccccc2)c(=O)c2c1nc1n2CCN1c1ccccc1 |
| -5% | Cc1ccc(C)c(N2CCN(C(=O)C(C)n3c(C)c4cnn(-c5ccccc5)c(=O)c4c3C)CC2)c1 (stereo not drawn) |
| 11% | Cc1ccc(N2C(=O)N(Cc3cc(=O)n4ccccc4n3)c3ccccc3S2(=O)=O)cc1Cl |
| -16% | Cc1cccc(NC(=O)CSc2nc(C)cc(C)c2C(=O)Nc2ccc(Cl)cc2)c1 |
| -6% | COc1ccc(-c2cn3c(n2)sc2cc(C(=O)NCc4cccc(F)c4)ccc23)cc1 |
| 3% | Cc1cc(C)cc(N(C)S(=O)(=O)c2nnc(NC(=O)COc3ccc(Cl)cc3)s2)c1 |
| 1% | CCc1nn(CC(=O)NCc2ccc(OC)cc2OC)c(=O)c2cc3c(OC)cccc3n12 |
| 0% | CC(C)NC(=O)CCSc1nc(-c2ccc3c(c2)OCO3)cc(C(F)(F)F)n1 |
| ? | Cc1ccc(N2C(=O)C(CC(=O)Nc3ccc(F)cc3)N(Cc3ccc4c(c3)OCO4)C2=O)cc1 (stereo not drawn) |
| -10% | Cc1ccc(NC(=O)CCn2nc(C)c3c(C)n(-c4ccccc4)nc3c2=O)cc1Cl |
| -2% | COc1cccc(NC(=O)Cn2c(=O)n(CC(=O)NCCc3ccccc3)c(=O)c3sccc32)c1 |
| -1% | Cc1ccc2nc(N3CCN(c4cccc(Cl)c4)CC3)c(-n3nc(C)cc3C)nc2c1 |

Compounds shown so far with a nitro group on carbon (2):
| miR-21 reporter | molecule |
| --- | --- |
| -2% | CSc1cccc(N2C(=O)N(Cc3ccc([N+](=O)[O-])cc3)c3ccccc3S2(=O)=O)c1 |
| 1% | CCOC(=O)c1ccc2c(c1)N(Cc1cccc([N+](=O)[O-])c1)C(=O)c1ccccc1S2 |

Screens as filed in PubChem BioAssay.
